From PubChem BioAssay
D2 PAM = Beta-Arrestin HTS for Positive Allosteric Modulators of the Human D2 Dopamine Receptor: Potentiators; AID 624464, 2012; D(2) dopamine receptor (Homo sapiens), P14416; 360,000 tested, 0.23% active; potentiation, % (test concentration not listed); DiscoveRx D2 beta-arrestin cells, luminescence, 90 min; 100% = 57 uM dopamine signal; active = potentiation of 50% or more; inconclusive = 30% to 50%; inactive = 30% or less;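 further: compound concentration not given in the record; tested on top of an EC20 dose of dopamine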
Target sequence (P14416 whole entry, looked up): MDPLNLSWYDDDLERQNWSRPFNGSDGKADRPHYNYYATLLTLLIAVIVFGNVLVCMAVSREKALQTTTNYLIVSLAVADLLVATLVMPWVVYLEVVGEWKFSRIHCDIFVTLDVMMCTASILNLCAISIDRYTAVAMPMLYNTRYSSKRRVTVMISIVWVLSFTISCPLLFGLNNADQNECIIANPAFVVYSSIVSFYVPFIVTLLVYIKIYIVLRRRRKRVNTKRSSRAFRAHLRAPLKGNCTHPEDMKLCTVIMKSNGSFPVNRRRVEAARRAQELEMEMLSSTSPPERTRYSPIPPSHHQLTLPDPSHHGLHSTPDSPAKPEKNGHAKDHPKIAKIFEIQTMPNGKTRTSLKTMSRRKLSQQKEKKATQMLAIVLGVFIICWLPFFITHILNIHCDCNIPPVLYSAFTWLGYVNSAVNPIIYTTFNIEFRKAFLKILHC
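D2 cells co-treated with compound plus 50 nM dopamine (EC20) for 90 min at 37 deg C to detect potentiation. Beta-arrestin recruitment was read as enzyme-fragment luminescence after 1 h at ambient temperature. Full response was set by 57 uM dopamine.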
CtBP-E1A blk = qHTS Assay for Inhibitors of the CtBP/E1A Interaction. CtBP / adenovirus E1A interaction (AlphaScreen). AlphaScreen GST-E1A/His-CtBP binding, 1536-well; active compounds read low; control for the full effect not named in the record. activity change, % (concentration not given with the values). 340,000 tested, 0.49% active; in the data active means activity change below about -65%; inconclusive means about -30% to -65%; inactive means above about -30%; further: on the % scale 0 is the no-effect control and ±100 the full control effect
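Homogeneous bead-based format: GST-tagged E1A captured on glutathione donor beads, His-tagged CtBP on nickel acceptor beads; compounds precede bead addition by 2 h at 37 °C.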
Six1-Eya2 inh = qHTS Assay for Inhibitors of the Six1/Eya2 Interaction; Homeobox protein SIX1 (Homo sapiens) + Protein phosphatase EYA2 (Homo sapiens), …; 360,000 tested, 0.56% active; AlphaScreen GST-Six1/His-Eya2 binding, biochemical; active compounds read low; control for the full effect not named in the record; activity change, % (test concentration not listed); in the data active = activity change below about -65%; inconclusive = about -30% to -65%; inactive = above about -30%; further: on the % scale 0 is the no-effect control and ±100 the full control effect
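Homogeneous AlphaScreen proximity assay pairing GST-Six1 with His-tagged Eya2 (added as 5X mix: 250 nM and 500 nM) in 50 mM Tris pH 8.0, 300 mM NaCl, 1 mM TCEP. Glutathione donor and nickel acceptor beads; 1 h, 37 °C, dark.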
D2 agonist = Beta-Arrestin HTS for Positive Allosteric Modulators of the Human D2 Dopamine Receptor: Agonists | D(2) dopamine receptor (Homo sapiens), P14416 | DiscoveRx PathHunter D2 beta-arrestin, luminescence, 90 min; 100% = 57 uM dopamine signal | activation, % (no concentration beside the values) | 360,000 tested, 0.084% active | AID 624465, 2012; in the data active = activation above about 40%; inconclusive = about 15% to 40%; inactive = below about 15%; further: compound concentration not given in the record; the text of the record calls up to 30% inactive
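DiscoveRx PathHunter D2 beta-arrestin cells (2,100/well) attached overnight, then compound-stimulated 90 min at 37 C in HBSS/10 mM HEPES/0.1% Tween-20 buffer; beta-galactosidase complementation read by luminescence after 1 h at ambient temperature. Dopamine 57 uM final (EC100) as control.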
PINK1 expr mod = A Quantitative High throughput Screen to Identify Chemical Modulators of PINK1 Expression | PINK1 immunofluorescence, high-content cytometry, 24 h | Potency, µM (series often up to 76.6 µM), without a hit: at the highest dose activation (PINK1 increase), usual class: activators | 410,000 tested, 0.2% active; active = well fitted activation curve with a large enough effect; inconclusive = small, poorly fitted or top-dose-only effect; inactive = flat fitted curve, though single readings scatter; cell line not stated here;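 further: potency means the concentration at half of the fitted maximal effect; % of control where 0% means no effect; nearly all actives have a fitted effect of over 65% in size; a mitochondrial uncoupler was the plate control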
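Stable cell line, 250 cells/well, 12 h attachment; compounds pinned at 5 concentrations, 24 h; CCCP control. Fixed with nuclear dye, primary antibodies 12 h at 10 degrees C, secondary plus cell stain; laser-scanning cytometer read.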
TRPML1 agonist = qHTS for Agonists of the Human Mucolipin Transient Receptor Potential 1 (TRPML1) | Mucolipin-1 (Homo sapiens), Q9GZU1 | AID 624414, 2012 | activation, % (test concentration not listed) | TRPML1-expressing cells, Ca2+ dye fluorescence, FDSS; host cell line not named in the record; reference of the full effect not given here | 410,000 tested, 0.12% active; in the data active = activation above about 50%; inconclusive = about 30% to 50%; inactive = below about 30%; further: 0% is about no effect; the text of the record puts the active cut at 80%
Target sequence (Q9GZU1 whole entry, looked up): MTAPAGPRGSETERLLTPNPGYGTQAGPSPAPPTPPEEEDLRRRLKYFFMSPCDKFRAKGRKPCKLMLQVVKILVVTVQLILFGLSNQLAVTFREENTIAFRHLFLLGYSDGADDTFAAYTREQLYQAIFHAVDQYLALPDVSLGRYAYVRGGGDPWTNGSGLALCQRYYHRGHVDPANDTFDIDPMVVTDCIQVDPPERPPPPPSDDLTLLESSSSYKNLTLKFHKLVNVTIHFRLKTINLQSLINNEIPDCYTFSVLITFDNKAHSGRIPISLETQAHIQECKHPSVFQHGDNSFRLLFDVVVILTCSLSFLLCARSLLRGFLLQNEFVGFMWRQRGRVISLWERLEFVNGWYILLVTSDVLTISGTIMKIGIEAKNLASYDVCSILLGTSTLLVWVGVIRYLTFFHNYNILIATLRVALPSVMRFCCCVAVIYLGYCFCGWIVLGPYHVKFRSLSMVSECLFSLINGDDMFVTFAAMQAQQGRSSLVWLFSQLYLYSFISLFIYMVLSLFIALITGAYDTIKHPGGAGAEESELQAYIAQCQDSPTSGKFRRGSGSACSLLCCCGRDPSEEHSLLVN
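Tetracycline-induced TRPML1-DL cells are seeded and incubated overnight before loading with a no-wash Ca2+ dye and quencher. Agonist activity is taken from the 110 s fluorescence read following compound pin-transfer on an FDSS, before EC80 54-4 challenge.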
* = called active by the depositor; ? = inconclusive; · = no result given; & = joins results of further samples; [ ] = remark or other dose. Random draw from the library; about 1.3% have a hit in one of these screens.

Structure	D2 PAM	CtBP-E1A blk	Six1-Eya2 inh	D2 agonist	PINK1 expr mod	TRPML1 agonist
CCOc1ccc(-c2n[nH]c(C)c2Oc2ccc(OC)cc2)c(O)c1	-14.5	-0.8	-2.3	0.0	9.5%	0.2
COc1ccccc1C(CCNCc1ccc(N(C)C)cc1)c1ccc(OC(C)C)cc1 (configuration not stated)	-17.8	·	-84.1*	-3.6	-1.6%	1.0
COCC(=O)N(Cc1cc2cc(OC)ccc2[nH]c1=O)c1ccccc1OC	-10.3	-0.6	-3.0	-4.3	1.7%	-1.2
COc1cc2ncc(C(=O)c3ccccc3)c(N3CCN(Cc4ccccc4)CC3)c2cc1OC	-14.3	?	?	1.4	2.3%	2.5
CCOC(=O)c1c(CN2CCOCC2)n(C)c2cc(Br)c(O)c(CN(C)C)c12	-12.3&-6.7	-4.8&23.3	-5.5&6.5	-2.0&-30.5	-5.9%[38.3 µM]	-0.4&-0.9
CCNc1ccc(S(=O)(=O)N(C)C)cc1NCC(=O)Nc1ccc(F)c(Cl)c1	-19.1	-6.9	-23.1	-3.7	?	-0.8
COc1ccccc1NC(=O)C(C)OC(=O)C1CCN(S(=O)(=O)c2ccccc2C(F)(F)F)CC1 (configuration not stated)	-0.4	-7.0	6.0	1.0	2.6%	2.5
CCn1c(=O)c([N+](=O)[O-])c(NC2CCS(=O)(=O)C2)c2ccccc21 (configuration not stated)	-20.0	-10.6	-19.5	-5.8	-0.6%	-0.8
COc1ccc(N(CC(=O)N2CCCCC2)S(=O)(=O)c2ccccc2)c(OC)c1	-17.3	9.4	5.1	-2.7	-1.5%[38.3 µM]	0.2
COc1cc(OC)cc(C(=O)OCC(=O)N2CCCC2)c1	3.2	30.3	10.8	-3.3	5.2%	0.0
COc1ccc(N2CCN(C(=O)c3ccc(OCc4c(C)noc4C)c(OC)c3)CC2)cc1	-1.0	1.6	8.9	1.3	5.1%	0.2
Cc1c2cnn(CC(=O)NCCCN3CCCCC3C)c(=O)c2c(C)n1Cc1ccccc1 (configuration not stated)	-6.8	-11.7	-1.3	-3.3	1.5%	0.3
Cc1ccc(-c2nn(CCC(=O)Nc3cccnc3)c(=O)c3ccccc23)cc1	-2.4	2.7	-2.2	0.0	0.2%	0.4
Cc1nc(C(=O)O)sc1C1(C)CC(c2cccc([N+](=O)[O-])c2)=NO1 (configuration not stated)	-4.0	-2.0	0.1	-0.6	0.4%	-0.2
Cc1cccc(NC(=O)CSc2nnc(CNC(=O)c3ccco3)o2)c1C	-12.7	1.3	1.0	-3.8	-1.3%	-0.8
O=C(Nc1cccc(S(=O)(=O)N2CCOCC2)c1)c1ccco1	-4.9	-11.1	-10.0	-2.8	1.7%	-0.2
CCOC(=O)C1CCCN(C(=O)c2ccccc2NS(=O)(=O)c2ccc(F)cc2)C1 (configuration not stated)	-2.3	3.9	5.1	1.8	-2.8%	-0.4
Cc1cccc(N2CCN(C(=O)C3CCCN(S(=O)(=O)c4c(C)noc4C)C3)CC2)c1C (configuration not stated)	-9.0	-7.4	-6.2	-5.4	1.1%	0.1
Cc1ccc(NC(=O)c2cn(CCC#N)nc2-c2cccs2)c([N+](=O)[O-])c1	14.5	?	-26.9	3.9	-2.3%	1.8
Cc1ccc(S(=O)(=O)Nc2cc(C(C)C)c(O)cc2C)cc1	-10.0	-0.8	-0.7	0.0	1.6%	0.0
COc1cccc(COCCN2CCN(S(=O)(=O)c3ccc(C)cc3)CCC2=O)c1	-8.0	0.9	-9.7	0.6	-0.4%	-0.4
COc1ccc(CCNC(=O)CN(C2CCCCC2)S(C)(=O)=O)cc1	-11.7	3.0	0.9	-1.4	2.9%	1.1
COc1cc(C(=O)N/N=C/c2ccc(OC(=O)c3ccccc3Cl)c(OC)c2)ccc1O	13.3	19.6	?	-0.2	1.0%	1.7
CC1(C)CN(c2cccc(C#N)c2)C1=O	-9.0	7.3	6.6	-2.8	0.3%	0.3
COc1cc(C2c3cc4c(cc3OC(N3CCCC3)C2C)OCO4)cc(OC)c1O (configuration not stated)	-2.3	-0.5	-12.7	8.0	14.9%	0.1
C(=N\n1cnnc1)/c1ccc2c(c1)OCO2	-0.2	-0.2	4.4	-1.4	-0.1%	0.3
COC(=O)c1ccc(NC(=O)COC(=O)C2CCC2)cc1	4.1	-8.4	7.0	-4.2	-0.7%	0.7
O=C(NCC1CC1)c1cc2c(c(-c3cccc(-c4ccccc4F)c3)n1)[C@@H](CCO)N(C(=O)CC1CC1)C2	·	-4.9	-10.8	·	0.3%	-0.4
Cc1cc(C)n(C(=O)CCC2COc3ccccc3O2)n1 (configuration not stated)	-0.3	8.7	40.4	-0.2	-1.7%	2.0
CC(C)C(C(=O)O)N1C(=O)/C(=C/c2cccn2C)SC1=S (configuration not stated)	-9.8	-0.1	-3.6	-8.2	-1.3%	0.9
CSC1=C(C#N)C(c2ccccc2Cl)C2=C(N1)c1ccccc1C2=O (configuration not stated)	-46.9	0.9	-2.8	-12.6	?	0.1
CC(O)CNC(=S)Nc1ccccc1 (configuration not stated)	-32.9	-1.0	2.4	-6.2	0.5%	-0.8
COc1ccc(NC(=O)NCc2cccn2C)c(OC)c1	-0.8	-16.8	-9.8	-0.9	1.8%	0.4
CCc1ccc(NC(=S)N2CCN(S(=O)(=O)c3ccccc3)CC2)cc1	-8.2	0.2	-1.5	-1.4	0.4%	1.2
COc1cccc(C(=O)NC(=S)Nc2ccc3c4c(cccc24)CC3)c1	-4.3	-8.9	-7.2	0.6	10.1%	-0.5
Cc1nc(C)c(C(=O)Nc2ccc(Oc3ccccc3)cc2)o1	0.6	-8.4	1.6	2.9	5.62µM*	1.0
CN(C)c1ccnc2sc(C(=O)c3ccccc3)c(N)c12	1.7	16.7	6.4	-3.1	1.3%	0.7
CC(C)C[C@H](NC(=O)C1CCN(S(=O)(=O)c2ccccc2)CC1)C(=O)NCc1cccnc1	-0.8	2.3	2.3	0.1	-1.8%	-0.5
CCn1c(CSCc2ccc(C)cc2)nnc1SCC(=O)N1CCN(c2ccccc2)CC1	4.2	-9.7	-10.5	0.2	-1.6%	2.1
CN(c1ccccc1)S(=O)(=O)c1cccc(NC(=O)c2cc3ccccc3oc2=O)c1	-4.4	0.1	12.5	-1.1	1.1%	0.0
Cn1c(C(=O)N2CCCc3ccccc32)cc2sccc21	-14.1	4.3	-4.0	-2.7	1.9%[38.3 µM]	3.5
S=c1[nH]nc2c3c4c(sc3ncn12)CCCC4	-19.7	?	?	-3.4	-0.8%	-0.8
O=C(Cn1cnc2ccccc21)NC(c1ccccc1)c1ccccc1	-2.7	0.6	-1.5	-2.0	?	2.7
COc1cccc(C(=O)NNC(=O)C(=O)N2CCCCC2)c1	-6.7	0.4	1.2	5.9	-3.3%	1.8
N#Cc1nc(COc2ccc(Br)cc2)oc1NCCN1CCOCC1	-2.0	-6.6	-4.9	-1.7	0.4%[38.3 µM]	3.8
Cc1cc(C)n(CCNC(=O)C2CCC(=O)N(CCc3cccc(F)c3)C2)n1 (configuration not stated)	-13.1	5.4	11.1	4.0	2.8%	0.4
COc1ccc(NC(=O)c2cc(-c3ccc(F)cc3OC(C)C)n[nH]2)cn1	-2.0	2.6	-9.0	5.8	0.0%	-1.2
CCn1c(SCC(=O)N/N=C(\C)c2ccncc2)nnc1-c1ccccc1	0.6	6.2	-3.3	-2.2	3.3%	-0.2
CCCCOC(=O)Cn1c(=N)n(CCN(CC)CC)c2ccccc21	-7.4	12.9	6.9	-1.5	0.9%	-0.1
Cc1ccc(NCCC(=O)c2cccs2)cc1	-5.2	-17.0	-29.1	-1.2	3.2%	0.8

PINK1 expr mod, hit marks shown above
SMILES	D2 PAM	CtBP-E1A blk	Six1-Eya2 inh	D2 agonist	PINK1 expr mod
Cc1nc(C)c(C(=O)Nc2ccc(Oc3ccccc3)cc2)o1	0.6	-8.4	1.6	2.9	5.62µM*

Carrying on:
Structure	D2 PAM	CtBP-E1A blk	Six1-Eya2 inh	D2 agonist	PINK1 expr mod	TRPML1 agonist
COc1cc(NC(=O)COC(=O)/C=C/c2c(C)nn(C3CCS(=O)(=O)C3)c2Cl)cc(OC)c1OC (configuration not stated)	0.8	12.4	0.4	-2.7	7.2%	-0.5
O=C(c1cc(-c2cccc(Cl)c2)nc2ccccc12)N1CCCC1	-4.3	-13.9	-20.4	0.0	-1.1%	-0.1
CN1C(=O)S/C(=C/c2ccccc2OCc2ccc(C(=O)O)cc2)C1=O	-3.3	20.3	-2.6	-2.4	-1.3%	0.0
COc1ccc(S(=O)(=O)c2c(O)c3ccc(C(=O)Nc4ccc(F)cc4F)cc3[nH]c2=O)cc1	-7.4	?	?	-2.3	0.1%	0.0
CCOc1cccc(C(=O)NCc2ccccc2)c1	-5.1	25.6	21.0	-0.4	2.6%	1.3
Cc1cc(C(=O)Nc2sc(C)c(-c3ccc(F)cc3)c2C(N)=O)no1	-3.2	-11.3	-14.1	-3.7	4.7%	2.6
CCCCC1Cc2[nH]c(=S)[nH]c(=O)c2C(c2cccc3ccccc23)O1 (configuration not stated)	·	3.2	-3.9	·	-0.2%	-1.1
COc1ccccc1C(=O)NCCC(=O)N1CCN(S(=O)(=O)c2ccc(Cl)cc2)CC1	0.9	2.2	4.2	2.9	0.9%	3.5
Cc1cc2c(cc1S(=O)(=O)N1CCOCC1)NC(=O)CO2	2.1	0.7	7.7	-2.6	-1.7%	-0.4
CCc1c(C(=O)Nc2ccncc2)csc1C	-9.7	7.7	5.5	-2.3	0.0%[38.3 µM]	0.5
CC(C)(C)Cc1nnc(NS(=O)(=O)c2ccc(F)cc2)s1	-7.1	5.6	2.0	-0.4	-0.9%	-0.7
COCCCNC(=O)[C@H](Cc1c[nH]c2ccccc12)NC(=O)OCc1ccccc1	-4.9	-17.4	0.3	-4.2	0.0%	0.9
O=C(COn1nnc2ccc(C(F)(F)F)cc21)Nc1nnc(-c2ccccc2)o1	?	-8.8	-27.8	-0.5	-0.1%	0.1
COc1ccc(CN2C(=O)CSCC2=O)cc1OC	-5.8	·	2.0	0.5	1.5%	0.9
O=C(O)c1ccc(/C=N/Nc2nc(N3CCCCC3)nc(N3CCCCC3)n2)cc1	-0.6	-1.3	7.3	0.9	1.0%	0.6
